# Beta cell apopt = blocks beta cell apoptosis. actives 0.8% (n = 300,000). INS-1E cytokine-induced death, ATP luminescence, 48 h; percent of positive-control rescue, neutral wells zero. protection from apoptosis, % (no concentration beside the values);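 active = all replicates at 75% or more, or half of them and the mean; inconclusive = half reach 75% but not the mean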;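 also: 0% = cytokine-treated negative control wells and 100% = positive control rescue; higher means more ATP so stronger rescue from cytokine killing; wells of about 40 µL received 100 nL stock; the first replicate is given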
# A1 inh = inhibitors of the anti-apoptotic protein A1, read as caspase activation. MEF A1-2A-BIM cells, Caspase-Glo 3/7 luminescence, 3 h; percent of clofoctol response, vehicle zero. caspase activation, % (concentration not given with the values). actives 0.066% (n = 330,000). AID 2462;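 active = over half of replicate activation scores above 10%, or exactly half above 10 with the replicate mean above 10; inconclusive = replicate mean below 10 yet half the replicates above 10; inactive = over half of replicates below 10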;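 also: wells of about 30 µL received 50 nL stock; many hits fall short of the cut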
# MLL AF4-AF9 inh = inhibitors of human MLL-AF4/AF9 interaction; actives 0.47% (n = 350,000); inhibition, % at 10 µM; AID 651704; P42568; AlphaScreen, biotin-AF4 peptide binding to FLAG-AF9;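 active = every replicate reaching a set inhibition limit, whatever the replicate mean, cut at about 25% in these data; inconclusive = mean inhibition reaches that limit but some replicates miss it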;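 also: 0% = plate neutral control median and 100% = total signal loss; the record names both 10 and 1 µM as test concentration; the first replicate is given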
# Target sequence (P42568 whole entry, looked up): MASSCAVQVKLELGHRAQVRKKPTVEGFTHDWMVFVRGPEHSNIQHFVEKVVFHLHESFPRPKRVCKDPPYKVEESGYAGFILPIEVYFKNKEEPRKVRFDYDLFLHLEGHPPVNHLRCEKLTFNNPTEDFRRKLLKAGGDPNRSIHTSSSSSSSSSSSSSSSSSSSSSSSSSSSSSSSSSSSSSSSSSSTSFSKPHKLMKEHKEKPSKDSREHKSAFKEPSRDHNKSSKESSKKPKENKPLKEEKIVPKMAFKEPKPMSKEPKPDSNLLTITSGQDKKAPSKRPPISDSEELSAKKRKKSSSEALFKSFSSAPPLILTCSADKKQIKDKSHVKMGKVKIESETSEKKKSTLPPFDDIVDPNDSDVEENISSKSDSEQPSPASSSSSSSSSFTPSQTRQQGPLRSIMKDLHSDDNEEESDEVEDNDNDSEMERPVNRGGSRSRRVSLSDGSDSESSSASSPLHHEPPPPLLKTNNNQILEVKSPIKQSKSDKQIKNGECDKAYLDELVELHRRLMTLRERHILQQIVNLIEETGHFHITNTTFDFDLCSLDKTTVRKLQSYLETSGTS
# Calb FLC = C. albicans growth modulation with fluconazole; C. albicans CaCi-2 (fluconazole-resistant clinical isolate) + fluconazole, Alamar Blue growth, 48 h; growth inhibition, % (no concentration beside the values); actives 0.57% (n = 300,000); AID 1979;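 active = most replicates above 75%; inconclusive = exactly half above 75%; inactive = most below 75%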;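 also: all wells also contain fluconazole at 8 µg/ml as a sub-toxic cotreatment; 0% = median of DMSO wells and 100% = median of geldanamycin control wells; wells of about 8 µL received 7.5 nL stock; the first replicate is given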
# T cruzi inh = T. cruzi replication inhibition. T. cruzi beta-gal in NIH3T3, luminescence, 90 h. inhibition, % (test concentration not listed). actives 1.4% (n = 300,000). AID 1885;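 active = mean inhibition across valid replicates above about 55%, limit read from the data; inconclusive = mean below that limit but half or more replicates reach it; inactive = mean below it, under half of replicates reach it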;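 also: signal also drops with host cell toxicity which is not excluded here; 0% = plate median of DMSO wells and 100% = zero luminescence signal; higher percent means less beta-gal luminescence so fewer parasites; stock transfer was 50 nL into about 50 µL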
# RanGTP-Impb inh = inhibitors of RanGTP-importin-beta interaction, primary screen, biochemical, FRET, CFP-Ran, YFP-importin-beta, homogeneous; actives 1.1% (n = 300,000); inhibition, % (concentration not given with the values); AID 2216; cell-free CFP-Ran/YFP-importin-beta FRET ratio;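 active = most replicates above 15%; inconclusive = exactly half above 15%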;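 also: 0% = DMSO wells and 100% = Ran loaded with GDP instead of GTP; wells of about 40 µL received 100 nL stock; the first replicate is given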
# Vif A3G = HIV-1 Vif–A3G interaction blockers – biochemical, TR-FRET, GST-Vif 1-94, biotin-A3G peptide, dose response retest, primary screen (AID 1117319) | TR-FRET GST-Vif / biotin-A3G peptide binding; higher % means a stronger effect; test concentration not given here; strong numbers were not always called active | inhibition, %; hits with a dose series show IC50 in µM | actives 0.57% (n = 260,000);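 active = above the screen mean plus three standard deviations and confirmed in dose response; inconclusive = results disagree or hit not tested in dose response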;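 also: Vif residues 1-94 fused to GST binding biotinylated APOBEC3G peptide 110-148; 0% = full assay without inhibitor and 100% = GST in place of GST-Vif; retest series ran down from 100 µM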
# LANA-H2A inh = blocks KSHV LANA binding to histone H2A/H2B. inhibition, % (concentration not given with the values). actives 0.6% (n = 320,000). cell-free LANA-H2A/H2B peptide, fluorescence polarization. Q9QR71; in the data active = inhibition mostly above about 10%, no sharp cut-off; inactive = mostly below about 6.7%;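 also: stock transfer was 7.5 nL into about 10 µL; 0% = median of vehicle wells and 100% = median of positive control wells; one replicate is shown; the record names a cut of 25% in any replicate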
# Numbers without * were called inactive; ? = inconclusive; / = no result given.
SMILES,Beta cell apopt,A1 inh,MLL AF4-AF9 inh,Calb FLC,T cruzi inh,RanGTP-Impb inh,Vif A3G,LANA-H2A inh
CCc1c(C)nc2ncnn2c1N1CCCC(C(=O)NCc2ccc3c(c2)OCO3)C1 (stereo not drawn),4,0.3,/,-4,14,1.8,?,-0.8
CC(C)CN(C(=O)CSc1nnc(-c2cccs2)n1N)c1c(N)n(Cc2ccccc2)c(=O)[nH]c1=O,0,0.2,5.3,-3,-21,-2.3,2%,/
CCOC(=O)c1sc(/N=C/c2c(C)[nH]n(-c3ccccc3)c2=O)c(C#N)c1C,-1,-0.5,/,-13,-10,1.2,0%,-7.6
COc1ccccc1CC(=O)NC1CC1,3,0.2,4.2,-6,-12,-1.7,/,2.5
CCOc1ccccc1NC(=O)NNC(=O)CCc1ccc(OC)cc1,-2,-0.1,-3.3,-23,-6,-0.1,/,-6.1
C/C(=N\N=C(/C)c1cccc(N)c1)c1cccc(N)c1,/,-1.7,-1.2,-29,5,1.1,/,-0.8
CCOc1ccc(S(=O)(=O)N2CCCC(C(=O)N3CCC(C(N)=O)CC3)C2)cc1Cl (stereo not drawn),-8,0.3,-3.3,0,-8,-2.5,1%,-2.7
COCCCNC(=O)CN1C(=O)c2ccccc2C1=O,1,0.4,/,-4,-2,-2.7,5%,-0.9
O=C(Nc1ccccc1)Nc1nccs1,2,0.2,/,-20,-9,-1.1,-3%,4.0
Cc1ccc(S(=O)(=O)NCCC(=O)NCCc2ccc(S(N)(=O)=O)cc2)cc1C,3,-0.2,-29,/,/,/,/,-1.4
Nc1c(-c2ccsc2)cnc2ncnn12,-8,0.6,-1.2,30,-4,4.1,0%,0.8
O=C(COc1ccc(S(=O)(=O)N2CCOCC2)cc1)NCc1ccco1,/,0.9,-1.2,2,-4,-4.3,/,-1.6
CC(C)OC(=O)CSc1nc2ncc(Cl)cc2[nH]1,/,1.2,/,5,-5,5.9,0%,6.1
COc1ccc(CC2(CO)CCN(S(=O)(=O)c3c(C)nn(C)c3C)CC2)cc1,-2,1.5,-0.2,7,-2,-2.1,28%,6.9
O=C1CC(C(=O)Nc2ccc(Cl)cc2)S/C(=N\N=C\c2ccco2)N1 (stereo not drawn),-1,0.8,-19,4,-5,0.2,?,6.4
CC(C)CN(CC(C)C)C(=O)c1cccc(S(=O)(=O)N2CCc3ccccc32)c1,0,0.5,0.6,-3,-2,1.9,3%,0.3
Cc1cccc(OCC(=O)N2CCN(C(=O)c3cccs3)CC2)c1,-8,1.1,/,1,-11,2.4,-11%,1.5
CCn1c(NC(=O)C(C)C)c(-c2ccccc2)c(=O)c2ccccc21,-11,-0.1,/,19,/,5.8,0%,0.1
CC(=O)Nc1ccccc1OCC(=O)NCC(F)(F)F,-2,0.4,-2.1,1,-1,6.0,20%,8.5
OCC[C@H]1C[C@@H](O)[C@H](O)[C@@]2(Cc3ccccc3CCO2)O1,-5,-1.2,-19,/,/,/,/,2.6
Cc1ccc(NC(=O)Cc2ccc(Cl)cc2)cc1S(=O)(=O)N1CCCCCC1,15,1.1,1.7,/,/,/,-5%,-3.0
CCN1C(=O)[C@@H]2C(C(=O)c3cnccn3)=NN[C@@H]2C1=O,-1,-0.1,5.0,-2,-3,-1.0,32%,1.8
Cc1nnsc1C(=O)NC1CCCc2c1cnn2-c1ccccc1F (stereo not drawn),45,-0.4,0.5,-2,-2,4.7,/,8.6
C(#Cc1ccc(C#CCN2CCOCC2)cc1)CN1CCOCC1,0,-0.8,/,10,-21,3.2,-4%,0.5
O=C1C(Cl)=C(NCc2cccnc2)C(=O)c2ccccc21,84*,-0.4,4.6,-6,25,-2.0,/,2.6
CCCCNC(=S)NNC(=O)c1cccnc1,-1,-0.1,/,5,-6,8.1,25%,-0.2
Cn1cnc([N+](=O)[O-])c1Oc1ccccc1,-3,0.5,-1.8,-8,7,4.9,-1%,0.1
Cc1ccc(S(=O)(=O)N(c2ccccc2)C2CCS(=O)(=O)C2)cc1 (stereo not drawn),-3,0.4,/,-4,-4,6.4,-2%,4.9
CCOc1cc(/C=N/O)ccc1OCc1ccc(C)cc1,-13,0.8,4.9,-1,22,4.4,/,-0.3
COc1ccccc1C(=O)N/N=C/c1c[nH]c2ccccc12,1,-1.1,-8.9,1,-11,-2.8,/,3.5
CC(C)C(=O)Nc1ccc(C(=O)NN2C(=O)c3ccccc3C2=O)cc1,-2,0.4,-7.3,14,10,3.1,-4%,/
CCOC(=O)CCCNS(=O)(=O)c1c(C)ccc2nsnc12,-3,6.6*,/,?,-3,2.4,28%,-2.5
COCCNC(=O)c1cnn2c(C(F)(F)F)cc(-c3ccc(C)cc3)nc12,8,0.2,-0.7,21,25,?,/,0.3
COc1ccccc1C(CNC(=O)c1ccc(NS(=O)(=O)c2ccc(F)c(C)c2)cc1)N1CCCC1 (stereo not drawn),-2,-0.7,-3.3,-10,37,-5.7,-5%,-0.2
O=S(=O)(NCc1ccco1)c1cccc(S(=O)(=O)N2CCOCC2)c1,-8,0.6,/,31,1,1.0,-2%,-5.9
O=C(OCc1nnc(-c2ccccc2Br)o1)c1ccco1,-5,?,-2.8,/,/,/,/,-3.2
COc1ccc(CC(=O)Nc2nc(-c3cccc([N+](=O)[O-])c3)cs2)cc1,5,0.9,/,-41,-3,-0.1,-10%,14
COc1cccc(OCC(=O)N(Cc2nc(-c3ccc(Cl)cc3)no2)C(C)C)c1,4,-0.2,1.8,-3,6,-1.3,26%,0.7
COc1ccc(S(=O)(=O)N(CC(=O)N2CCCC2)Cc2ccccc2)cc1,-5,0.7,/,-25,12,6.9,28%,0.4
O=C(N/N=C/c1ccccn1)c1cc(-c2ccc(Cl)cc2)nc2ccccc12,43,-1.2,-25,61*,44,-2.2,-7%,/
CCC(Sc1nc2c(c(=O)n1CC)SC(C)C2)C(=O)OC (stereo not drawn),0,0.0,-22,-7,-1,-0.1,70%,-1.4
Cc1cc(C(=O)COC(=O)C(C)NC(N)=O)c(C)n1Cc1ccco1 (stereo not drawn),-2,-0.1,-1.7,-2,-5,-0.5,-6%,0.5
COc1cc2cc(C(c3nnnn3C3CCCC3)N3CCc4ccccc43)c(=O)[nH]c2cc1OC (stereo not drawn),1,-0.7,4.2,40,12,-1.3,?,-2.4
CCC(C)N(CC(=O)NCc1ccc(OC)cc1)C(=O)c1csnn1 (stereo not drawn),-2,-0.2,/,-13,-1,-3.2,-8%,3.1
COc1ccc(OC)c(/C=C/c2c([N+](=O)[O-])c(=O)n(C)c(=O)n2C)c1,-18,-0.5,-0.9,21,3,0.6,2%,-1.5
CCOC(=O)C1=C(c2ccccc2)NC(N)=NC1c1ccc(OCc2ccc(Cl)cc2)c(OC)c1 (stereo not drawn),-11,0.7,27*,-6,21,5.3,8%,4.6
Cc1cccc(CN2C(=O)N/C(=C/c3cc(C)n(-c4ccccn4)c3C)C2=O)c1,-5,0.3,/,-2,12,7.6,8%,-0.5
O=C(CCc1nnc2n(Cc3ccc(F)cc3)c(=O)c3ccccc3n12)N1CCN(c2ccccn2)CC1,3,0.6,3.7,1,16,-0.6,/,2.0
CC(C)(C)NC(=O)NC(=O)COC(=O)c1ccco1,-1,0.3,/,0,-3,0.0,-4%,3.9
O=C(Cn1cc([N+](=O)[O-])cn1)NCCc1c[nH]c2ccccc12,-6,0.0,-1.3,-21,/,/,4%,3.1
Nc1ccc(C(=O)OCc2ccncc2)cc1[N+](=O)[O-],-13,0.0,0.8,8,-7,1.7,?,4.8
N#Cc1ccc2ccn(CC(=O)NC3CCCCCC3)c2c1,2,/,/,-19,19,5.9,2%,-0.1
COC(=O)N/N=C/c1cc(C)n(-c2ccc(Br)cc2)c1C,2,-0.3,5.1,-5,-13,-2.8,/,1.5
Cc1ccc(NC(=S)N2CCC(c3nc4ccccc4s3)CC2)cc1C,-7,0.4,10,-3,44,3.8,0%,10
CCOC(=O)c1ccc(NC(=S)N2CCCC(C(=O)N3CCCC3)C2)cc1 (stereo not drawn),-4,0.1,-1.3,-5,2,-3.0,3%,0.1
COc1ccc(/C=C/C(=O)OCC(=O)NC2CCCC2)cc1OC,-2,-1.1,-1.3,/,/,/,-2%,-2.6
CCOc1nsc(OCC)n1,-2,-2.3,0.0,-4,3,-1.0,1%,1.4
Cc1cc(C)n2nc(C(=O)NC3CCCc4ccccc43)nc2n1 (stereo not drawn),-3,0.8,-1.0,-1,3,-1.6,-8%,0.4
CCOc1cc(CC(=O)N[C@@H](CC(C)C)c2ccccc2N2CCCCC2)ccc1C(=O)O,2,0.4,-3.2,/,-13,4.4,6%,-4.1
COc1ccc2c(c1)NC(=O)CC(c1ccccc1)=N2,-1,0.7,/,-5,-10,0.2,3%,-2.8

# Next part
SMILES,Beta cell apopt,A1 inh,MLL AF4-AF9 inh,Calb FLC,T cruzi inh,RanGTP-Impb inh,Vif A3G,LANA-H2A inh
O=C(CSc1ccc2nnc(-c3ccncc3)n2n1)Nc1ccc2c(c1)OCO2,-2,1.0,5.5,4,5,?,2%,-2.5
CC(C)=CCN1CCN(Cc2cccnc2)CC1CCO (stereo not drawn),4,0.7,1.1,36,47,0.0,-5%,-1.3
Cc1cc(C)c2c(c1)-c1cc(C)nn1C(c1ccc3c(c1)OCO3)N2 (stereo not drawn),2,0.4,/,?,28,10,-2%,3.0
COC(=O)c1cccc(C23CC4(C2)[C@H](CN(Cc2ccc(-c5ccccc5)cc2)[C@@H]4c2ccccc2)C3c2ccc(Cl)nc2)c1 (stereo partly drawn),-1,-0.6,/,-4,-1,3.9,/,0.0
COC(=O)c1cc(C)sc1NC(=O)c1ccco1,-14,-0.4,-4.3,/,-8,/,/,-0.5
COc1cccc(-n2c(=O)c3ccccc3n(CC(=O)NCC3CCCO3)c2=O)c1 (stereo not drawn),3,-0.2,-0.1,-4,-17,7.4,/,0.2
C=CCC(=O)N1CCCC(C(=O)c2ccc(Cl)cc2)C1 (stereo not drawn),/,0.8,-3.0,-2,3,1.5,/,0.8
Cc1ccc(Nc2cc(C)nc3ncnn23)c(Cl)c1,3,-0.2,-1.6,1,-15,2.9,8%,5.7
CCOC(=O)c1cnc(SCC(=O)N2CCOCC2)nc1N,/,-1.5,0.1,16,-10,-5.2,-5%,-2.2
CC(C)c1ccc(C(=O)NC(=S)NCc2cccnc2)cc1,/,-1.2,?,-8,3,0.2,/,-1.5
O=C(COc1ccccc1Cl)Nc1ccc(CN2CCOCC2)cc1,-5,0.2,0.9,5,-4,1.8,6%,1.6
CCOc1c(Cl)cc(CNCC(C)C)cc1Cl,-2,-0.4,/,-13,9,0.2,5%,1.5
O=C(O)CC1=C(Nc2ccccc2)C(=O)N(c2ccccc2)C1c1ccc(Br)cc1 (stereo not drawn),-16,-0.6,2.3,-2,-22,-4.4,1%,0.1
CCOC(=O)C1CCCN(c2c(N3CCC(N4CCCCC4)CC3)c(=O)c2=O)C1 (stereo not drawn),0,0.7,-2.1,-7,-11,-3.8,-1%,-0.3

# Looked up above:
# Reading for `CC(C)c1ccc(C(=O)NC(=S)NCc2cccnc2)cc1` in RanGTP-Impb inh: 0.2
# Reading for `C=CCC(=O)N1CCCC(C(=O)c2ccc(Cl)cc2)C1` (stereo not drawn) in Calb FLC: -2
